CapD inh = CapD enzyme inhibition; purified CapD enzyme, fluorescence intensity read-out; hits give low values; some hits fall short of the stated cut; z-score (test concentration not listed); 140,000 compounds, 0.23% hits;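 active means z-score under -4 in either of two replicates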;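 further: stock transfer was 100 nL into about 40 µL; score is relative to mean and spread of the plate; one replicate is shown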
AID504770 = growth inhibitors of E. coli YBA685 in a screen for V. cholerae RctB (chromosome II replication) inhibitors | E. coli YBA685 rctB-dependent plasmid, OD600 growth, 3 h; hits give low values | z-score (concentration not given with the values) | 130,000 compounds, 0.27% hits | AID 504770;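 active means z-score under -2 on both plates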;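 further: wells of about 30 µL received 100 nL stock; score is relative to mean and SD of the test wells; the first replicate is given; strong numbers were not always called active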
Numbers without * were called inactive; nt = no result given. The list is partial (hit frequency here may not be typical).

compound | CapD inh | AID504770
O=C(OC1N=C(c2ccccc2Cl)c2cc(Br)ccc2NC1=O)c1cccnc1 (stereo not drawn) | 0.11 | nt
CCN(CC)C(=O)CSc1nc2cc3c(cc2c(=O)n1CCC1=CCCCC1)OCO3 | 0.3 | 0.5
CCCCN(Cc1ccccc1)Cc1ccco1 | -0.23 | 1.1
O=C(O)c1cc2cc(Cl)ccc2oc1=O | 3.2 | 0.6
COc1ccccc1Cn1c(=S)[nH]c2cc(C(=O)NCc3ccco3)ccc2c1=O | 0.69 | 1.4
CCOC(=O)C1=C(c2ccccc2)S/C(=C2/C(=S)C(C)(C)N(C)c3ccc(C)cc32)S1 | -0.15 | nt
COC(=O)N/N=C(/c1ccccc1)C1CCCCC1 | nt | 0.25
Cc1ccccc1-n1c(SCC(N)=O)nnc1-c1ccc(Cl)cc1 | -0.26 | -0.35
CC(N=C1NS(=O)(=O)c2ccccc21)C(=O)NCCc1ccc2c(c1)OCCO2 (stereo not drawn) | nt | 0.55
COc1ccccc1C(O)(C(=O)NNc1cccc(C)c1)c1ccccc1OC | -0.02 | nt
COc1cc(OC)nc(C(c2ccccc2)N2CCN(c3nc(C)cc(C)n3)CC2)n1 (stereo not drawn) | -0.35 | nt
CN(C)c1ccc(/C=C2/SC(=Nc3ccccc3Cl)NC2=O)cc1 | -0.48 | nt
CCC1(C)CC(/C=N/O)CCO1 (stereo not drawn) | nt | -0.2
CCOC(=O)C1CCN(C(=O)Cn2ncc3ccccc32)CC1 | -1.5 | 0.95
N#Cc1cccc(OCc2ccccc2F)c1 | -0.81 | 2.5
Clc1ccc(OCc2nc(-c3ccccc3)no2)cc1 | 0.96 | -0.55
O=C1CC(NNc2ccccc2)C(=O)N1c1cccc(Cl)c1 (stereo not drawn) | nt | -1.1
CSC1=NC(C)(C)CCC(C)(C)N1 | -1.1 | nt
Cc1nc(N2CCOCC2)nc(N2CCCCC2)c1[N+](=O)[O-] | -1.2 | nt
Cc1cc(NC(=O)NC2CCN(Cc3ccccc3)CC2)c(C(F)(F)F)o1 | -0.9 | -2.1
COc1ccc(C2c3c(oc4ccccc4c3=O)C(=O)N2CCCOC(C)C)cc1 (stereo not drawn) | -0.59 | -0.9
COC(=O)c1nnn(-c2nonc2N)c1CN1CCCCC1 | -0.3 | nt
CCCCOc1ccc(S(=O)(=O)NC(Cc2c[nH]c3ccccc23)C(=O)OC)cc1 (stereo not drawn) | 0.12 | nt
Cc1ccc2c(c1)c1c(n2CCN(Cc2ccccc2)Cc2ccccc2)C(=O)CCC1 | 27 | 0.05
N#Cc1ccsc1NC(=O)CN1CCc2ccccc2C1 | nt | 2.4

More compounds
compound | CapD inh | AID504770
CCOC(=O)c1ccc(-n2c(=S)sc3c2nc(SCC(=O)N2CCCC2)n2c4ccccc4nc32)cc1 | -0.29 | nt
CC(=O)C1=NN(c2cccc(Cl)c2)C2(S1)c1ccccc1C(c1cc(C)ccc1C)=NN2c1ccccc1 (stereo not drawn) | -0.12 | nt
Cc1cc(Oc2c(C)cccc2C)c2ccccc2n1 | -1 | -0.55
CC12CC[C@H]3[C@@H](CCC4(O)C[C@H](O)CCC34/C=N\NC(=O)c3ccccc3NC(=O)c3ccccc3Cl)C1(O)CCC2C1=CC(=O)OC1 (stereo partly drawn) | -0.2 | nt
COc1ccccc1N(Cc1ccccc1O)C(=O)COc1ccccc1 | nt | 1
COc1ccc2cc(CN(CC3COCCO3)S(=O)(=O)c3c(C)cc(C)cc3C)c(=O)[nH]c2c1 (stereo not drawn) | nt | -0.55
O=C(O)c1ccccc1OCC(O)Cn1cnc2ccccc21 (stereo not drawn) | -0.09 | -0.2
CNc1nc(NC(C)(C)C)nc(OCC(F)(F)F)n1 | 0.11 | 1.2
COC(=O)c1nccnc1N | 79 | nt
Cc1nn(-c2ccccc2)c(C)c1C(=O)NCC(c1cccs1)N(C)C (stereo not drawn) | nt | 1.6
CS(=O)(=O)NN=C1CCCCC1 | 0.4 | -0.7
Cc1cccc(OCC(O)CN2CCCCCC2)c1C (stereo not drawn) | 0.08 | 0.35
CCc1ccc(C2=Nn3c(C)nnc3SC2)cc1 | 0.28 | 0.25
CCOc1ccc(-c2cc(C(=O)NCC3COc4ccccc4O3)c3ccccc3n2)cc1 (stereo not drawn) | 0.28 | 0
OC1(C#Cc2ccccc2)CCN(Cc2ccccc2)CC1 | -1 | -0.55
COc1ccc(C2SCCN2S(C)(=O)=O)cc1OC (stereo not drawn) | nt | -0.05
Cc1cc(NC(=O)COC(=O)C2=NNC(=O)CC2)no1 | nt | -0.35
Cn1c(-c2ccccc2)cnc1N | nt | 1.9
CC(C(=O)Nc1ccc(S(N)(=O)=O)cc1)C1SC(=O)NC1=O (stereo not drawn) | -0.66 | -0.65
CC1=C(n2nnc3ccccc32)C(c2ccccc2)C(C#N)=C(N)O1 (stereo not drawn) | 3 | nt
N#CC(C#N)=C1CCCN1CC(=O)c1ccccc1 | 0.71 | -0.4
O=C(COC(=O)c1cc2ccccc2o1)c1ccc(Br)cc1 | -0.39 | 0.15
O=C(Nc1ccc(F)cc1F)c1ccccc1I | -0.93 | -0.25
CCOc1cc(C#N)c(NC(=O)c2ccncc2)cc1OCC | -0.8 | 0.3
CCn1c2ccccc2c2cc(/C=N/NC(=O)c3ccncc3)ccc21 | nt | 0.55

Whole records as entered above:
COc1ccc2cc(CN(CC3COCCO3)S(=O)(=O)c3c(C)cc(C)cc3C)c(=O)[nH]c2c1 (stereo not drawn) reads CapD inh = nt; AID504770 = -0.55
O=C(O)c1ccccc1OCC(O)Cn1cnc2ccccc21 (stereo not drawn) reads CapD inh = -0.09; AID504770 = -0.2
Cc1nn(-c2ccccc2)c(C)c1C(=O)NCC(c1cccs1)N(C)C (stereo not drawn) reads CapD inh = nt; AID504770 = 1.6

(cont.)
compound | CapD inh | AID504770
CC(C)(C)c1ccc(-c2nnc(-c3ccc(N4CCOCC4)cc3)o2)cc1 | nt | 0.65
Cc1oc2ncn3c(C)nnc3c2c1C(=O)NC1CC1 | -0.18 | -0.9
O=C1NC(c2ccc(F)cc2)(C(F)(F)F)C(=O)N1Cc1ccco1 (stereo not drawn) | -0.075 | -0.45
CC1(C)OC(c2ccccc2)=NC1=O | 0.63 | 0.75
O=C1/C(=C/c2ccc(Cl)cc2)C=C(c2ccccc2)N1c1ccc(Nc2ccccc2)cc1 | 0.27 | nt
O=C1C2C3C=CC(C3)C2C(=O)N1/N=C/c1ccc(O)c(O)c1 (stereo not drawn) | -1.9 | 2
CC(C)CC(=O)CN1C(=O)C2(OCCO2)c2ccccc21 | 0.1 | nt
CCn1ncc(/C=N/O)c1C | -0.39 | 1.1
CCOC(=O)C1CCCN(C(=O)CCC2CCCCC2)C1 (stereo not drawn) | -0.49 | 0.1
CC(C)n1c(CCCNC(=O)C(C)(C)C)nc2ccccc21 | 0.17 | -0.4
CC1CN(c2ccccc2O)CC(C)O1 (stereo not drawn) | -0.2 | -1.1
COc1ccc(Cl)cc1NC(=O)c1cc2n(n1)C(C(F)(F)F)CC(c1ccc(OC)c(OC)c1)N2 (stereo not drawn) | 0.085 | nt
CC(OC(=O)c1cccs1)C(=O)N1CCc2ccccc21 (stereo not drawn) | nt | 1.1
O=C1c2cccc3cccc(c23)C(=O)N1NCCO | 1.8 | -0.3
CCCn1c(SCc2csc(CC(=O)Nc3ccccc3C)n2)n[nH]c1=O | nt | 0.65
CC(=O)Nc1ccc(F)cc1 | -0.46 | nt
Cc1cc(-n2c(=S)sc3c(=O)n(-c4ccc(F)cc4)c(SCC#N)nc32)ccc1Cl | 2.5 | 0.95
C=CCn1c2ccccc2c2nnc(SC(CC)C(=O)Nc3nc(C)c(C(=O)OCC)s3)nc21 (stereo not drawn) | -0.15 | nt
O=C(CC1=NS(=O)(=O)c2ccccc2N1)NCCC1=CCCCC1 | 0.17 | -1.1
CC(C)(O)C(C)(C)CCO | nt | 2.2
COc1cccc(NC(=S)NN)c1 | 0.23 | -0.55
C1=C(c2ccccc2)Nc2ncnn2C1c1ccc2c(c1)OCO2 (stereo not drawn) | 1 | 1.4
CCOC(=O)CN1C(=O)/C(=C2\SC(=S)N(c3ccc(Br)cc3)C2=O)c2ccccc21 | 0.1 | nt
Cc1cc(CNC(=O)CSc2nnc3ccccn23)cc(C)c1O | nt | 2.2
CS(=O)(=O)N1CCCC(C(=O)N2CCc3ccccc3C2)C1 (stereo not drawn) | -0.045 | 0.95

Among those listed so far, three have bromine:
compound | CapD inh | AID504770
O=C(OC1N=C(c2ccccc2Cl)c2cc(Br)ccc2NC1=O)c1cccnc1 (stereo not drawn) | 0.11 | nt
O=C(COC(=O)c1cc2ccccc2o1)c1ccc(Br)cc1 | -0.39 | 0.15
CCOC(=O)CN1C(=O)/C(=C2\SC(=S)N(c3ccc(Br)cc3)C2=O)c2ccccc21 | 0.1 | nt

(next part)
compound | CapD inh | AID504770
N#Cc1cnc(N(Cc2ccccc2)Cc2ccccc2)nc1N | -0.11 | -1.6
CCC(=O)OC1=C2C(=Nc3c(c(=O)n(C)c(=O)n3C)C2c2ccc(C)cc2)c2ccccc21 (stereo not drawn) | -1 | nt
COc1ccc(-n2nc(C(=O)N3CCCCC3C)c3c4ccccc4n(C)c3c2=O)cc1 (stereo not drawn) | -0.29 | -0.95
N#CSCC(=O)N1c2ccccc2Sc2ccc(C(F)(F)F)cc21 | -1.3 | nt
CSc1cccc(-n2c(C)cc(C(N)=O)c2C)c1 | nt | -0.35
CCN(CC)c1ccc(-n2cccc2)cc1 | nt | -0.1
O=C(NCc1ccco1)C1CC(c2ccccc2O)=NO1 (stereo not drawn) | nt | -0.7
CNC(=S)NNC(=O)c1cccn(Cc2ccc(Cl)c(Cl)c2)c1=O | 1.8 | nt
On1ccccc1=S | nt | -5.3*
CCOC(=O)C1=NN(c2ccccc2)C2c3cc(OC)c(OC)cc3CCN12 (stereo not drawn) | 14 | -0.4
O=C(NCCN1CCOCC1)c1cc(N2CCOCC2)nc(N2CCOCC2)n1 | -0.3 | nt
CC(C)c1ccc(/C=c2/sc3n(c2=O)C(N)=C(C#N)C(c2ccc(C(C)C)cc2)C=3C#N)cc1 (stereo not drawn) | -0.005 | nt
CCCOc1ccc(-c2cc(C(F)(F)F)c(C#N)c(SCC(=O)O)n2)cc1 | 3.6 | 0.5
COC(=O)c1c(C)oc2ccc(OCC(=O)OC(C)(C)C)cc12 | 0.5 | -0.1
COc1ccc(NC(=O)c2ccc3c(=O)n(Cc4cccc(Br)c4)c(=S)[nH]c3c2)c(OC)c1 | 0.025 | nt
O=C(NCC1CCCO1)c1cnc(N2CCCC2)nc1 (stereo not drawn) | 1.9 | -0.15
FC(F)(F)c1nnc2c3ccccc3c(Cl)nn12 | nt | -0.55
CCn1c2ccccc2c2cc(CNCCc3ccc(Cl)cc3)ccc21 | 1 | -0.2
Cc1ccc(C)n1-c1ccc(C(=O)NNC(=O)c2cc(C(F)(F)F)cc(C(F)(F)F)c2)cc1 | -0.33 | nt
Cc1cc(N2CCN(C)CC2)nc(SC(C(=O)O)c2ccccc2)n1 (stereo not drawn) | nt | -0.95
CCOC(=O)c1ccccc1OC(=O)c1c(F)c(F)c(F)c(F)c1F | 0.43 | 1.1
CCCCn1c(COc2ccc(Cl)c(C)c2)nc2cc(S(N)(=O)=O)ccc21 | nt | 0.65
CC(C)Cc1ccc(C#N)c(SCc2nnc(-c3ccccc3)o2)n1 | -0.2 | nt
CC(=O)NCCc1nc2ccccc2n1CCOc1ccccc1 | 0.09 | 0.25
Cc1c(C(=O)NCCN2CCN(C)CC2)sc2nc3n(c(=O)c12)CCCCC3 | 0.12 | 1.5

Next section
compound | CapD inh | AID504770
CCCCOC(=O)Sc1nc2ccccc2o1 | -0.44 | -0.75
S=c1nc(C2CCCCC2)[nH][nH]1 | 0.51 | -1.9
Cc1nn(-c2ccc(F)cc2)c2sc(C(=O)N(C)C3CCN(C)CC3)cc12 | 0.36 | 0.05
COc1ccc(S(=O)(=O)NC2CCCCCC2)c2ccccc12 | 0.12 | -0.2
CC(=O)Nc1ccc(C(=O)NC(C(=O)OCc2ccccc2)C(C)C)cc1 (stereo not drawn) | -0.69 | nt
COc1ccc(CCN2C(=O)/C(=C/C3CC=CCC3)SC2=S)cc1OC (stereo not drawn) | 72 | -0.75
O=C1NC(=Nc2ccccc2Br)S/C1=C/c1cccs1 | -0.33 | 0.3
CSc1nc2c(C#N)c(SC)nn2c(-c2ccc(Cl)cc2)c1C#N | -0.77 | 2.5
CNC(=S)NNS(=O)(=O)c1ccc(C)cc1 | -0.43 | -0.15
Cc1onc(-c2ccccc2)c1-c1csc(CS(=O)(=O)C(C)(C)C)n1 | 0.49 | -0.35
Cc1noc(C)c1C(=O)OC(C)C(=O)c1ccc(C(C)(C)C)cc1 (stereo not drawn) | nt | 0.25
O=C(Cn1nc(-c2ccccc2)c2ccccc2c1=O)Nc1ccc(O)cc1 | -0.19 | -1.4
O=C(CCC(=O)c1ccc(F)cc1)Nc1cccc(Br)c1 | -0.28 | 0.15
CC1=C(C#N)C(c2ccc(OCc3ccccc3)cc2)C(C#N)=C(C)N1 | 13 | 3.2
O=C(O)c1ccc(Oc2ccccc2)o1 | -0.5 | -0.3
COc1cc(C)c(C(C)C)cc1S(=O)(=O)N1CCCC1 | -0.18 | 0.1
COc1ccc(-n2ncc3c(Nc4ccc(OC)c(Cl)c4)ncnc32)cc1 | 1.2 | nt
O=C(NCc1ccccc1)/C(=C/c1cn(-c2ccccc2)nc1-c1ccc(F)cc1)NC(=O)c1ccc(Cl)cc1Cl | 0.32 | nt
Cc1cc(NC(=O)CC(C)(C)C)nc2c1c(=O)oc1ccccc12 | nt | 0.3
O=C(CSc1ncn(-c2ccccc2)n1)NCC1CCCO1 (stereo not drawn) | nt | 0.2

Compound activity from PubChem.
